Ba CapD inh: CapD enzyme inhibition; purified CapD enzyme, fluorescence intensity read-out; stronger effect = lower value; some hits fall short of the stated cut; 140,000 compounds, 0.23% hits; z-score (concentration not given with the values);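 active means z-score under -4 in either of two replicates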;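 further: stock transfer was 100 nL into about 40 µL; score is relative to mean and spread of the plate; one replicate is shown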
AID504770: growth inhibitors of E. coli YBA685 in a screen for V. cholerae RctB (chromosome II replication) inhibitors. E. coli YBA685 rctB-dependent plasmid, OD600 growth, 3 h; stronger effect = lower value. z-score (test concentration not listed). 130,000 compounds, 0.27% hits;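 active means z-score under -2 on both plates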;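 further: wells of about 30 µL received 100 nL stock; score is relative to mean and SD of the test wells; the first replicate is given; strong numbers were not always called active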
* marks the source's active call; other numbers are inactive results; i = inactive; . = not tested or not shown. Not a hit list; overall some 0.37% were active at least once.

Screens in order – Ba CapD inh	AID504770
- CSC1=NC(C)(C)CC12C=CC(=O)C=C2
  -0.015	2.1
- CSc1ccccc1NC(=O)CN(C)C(=O)c1cnn(-c2ccccc2)n1
  .	-0.55
- N=c1oc2c3c4c(cc2cc1C(=O)Nc1ccccc1)CCCN4CCC3
  0.895	-0.2
- CCOC(=O)c1c(/N=C/C2C(=O)NC(=S)NC2=O)sc2c1CCCCC2
  -0.045	0.9
- Cc1ccc(C(=O)C(C)Sc2nnnn2C)cc1 (centres undefined)
  .	1.5
- Cc1ccc(CS(=O)Cc2ccc(C(=O)NCC3CCCO3)o2)cc1 (centres undefined)
  -1.29	0.3
- COc1ccc2oc(-c3ccccc3)c(C(N)=O)c2c1
  i	-0.2
- CC(C)CN1C(=O)S/C(=C\c2ccc(F)cc2)C1=O
  -0.405	-0.65
- Cc1cccc(NC(=O)c2sc3nc(-c4cccs4)cc(C(F)(F)F)c3c2N)n1
  18.3	.
- CC1(C)CC(=O)C2=C(C1)NC1=C(C(=O)CC(C)(C)C1)C2c1ccc([N+](=O)[O-])s1
  -0.95	.
- Cc1ccc(S(=O)(=O)NCCN2CCN(Cc3ccc(Br)s3)CC2)cc1
  .	0.2
- COc1ccc(-n2c(SCc3nc4ccccc4s3)nc3ccccc32)cc1
  .	0.85
- CC(C)(C)c1ccc(/C=N/NC(=O)CN2CCS(=O)(=O)CC2)cc1
  0.14	.
- N#CC(C#N)=CNC1CCSC1 (centres undefined)
  0.615	0.1
- COc1ccc(-c2ccnc(SCC(=O)N(C)C)n2)cc1
  .	-0.3
- O=C(O)/C=C/c1ccc(-c2cccc(Cl)c2)o1
  i	-0.8
- Cc1ccc(NC(=O)CS(=O)CC(=O)NC2CCN(Cc3ccccc3)CC2)c(C)c1 (centres undefined)
  .	0.85
- Cc1csc(NC(=O)C(F)(F)F)c1-c1nc2ccccc2s1
  -0.075	-1.4
- CN(C)C(CNCc1ccc(-n2cnc3ccccc32)cc1)c1ccco1 (centres undefined)
  .	1.3
- CCc1ccc(Oc2c(CC(=O)O)oc3cc(O)c(CC)cc3c2=O)cc1
  -1.15	-0.25
- Cc1ccc(CC2CC(=O)N(c3cc(C)on3)C2=O)cc1 (centres undefined)
  0.615	0.9
- CC(C)(C)NS(=O)(=O)C1CCS(=O)(=O)C1 (centres undefined)
  -0.64	-0.5
- COc1ccc(CNC(=O)C2CCN(c3cc(C(=O)Nc4cccc(OC)c4)ccn3)CC2)cc1
  4.2	-1.1
- CC(=O)n1cc(/C=N/NC(=O)c2cccc(O)c2)c2ccccc21
  -0.155	-0.4
- Cc1nc(C)c(S(=O)(=O)N2CCC(C(=O)c3ccccc3)CC2)s1
  -0.025	-0.15
- CCOc1ccc(Nc2nc(NCc3cccnc3)nc(OC)n2)cc1
  -0.355	.
- CSc1ccccc1NC(=O)C1CCCC1
  .	-0.65
- COc1ccc(CCNc2nc3c(c(C(F)(F)F)n2)CC(C)CC3)cc1OC (centres undefined)
  -0.125	-0.45
- Cc1cc(NC(=O)CSc2nc3ccccc3c(=O)n2CCCN2CCC(C)CC2)n[nH]1
  -0.025	1.1
- Cn1c(-c2sc3cc(C(F)(F)F)cnc3c2-c2ccccc2)n[nH]c1=S
  -0.315	.
- Oc1oc(-c2ccccc2)nc1C=Nc1cccnc1
  -0.3	1.7
- Brc1ccc(-c2nnc3ccc4ccccc4n23)cc1
  1.53	.
- CCOC(=O)c1c(C)[nH]c(C)c1C(=O)COC(=O)C1Cc2ccccc2CN1C(C)=O (centres undefined)
  .	1.15
- C[C@]1(C(=O)O)CCC[C@]2(C)c3cc(O)ccc3CC[C@@H]12
  -0.125	0.95
- CC(OC(=O)C1CCN(c2ccc(C(F)(F)F)cn2)CC1)C(=O)Nc1ccccc1F (centres undefined)
  .	-0.2
- FC(F)(F)c1cc(C#CCN2CCCCC2)cc(C(F)(F)F)c1
  0.41	-1.1
- O=C(OCCSc1ccc(Cl)cn1)c1cccc(Cl)c1
  -0.165	-0.45
- Cn1c(C(=O)O)c(CC(=O)NCC2COc3ccccc3O2)c2ccccc21 (centres undefined)
  0.94	-0.45
- CNC(=O)c1cncc(C(=O)NC)c1
  .	-1.3
- Cc1ccc(-n2c(-c3ccccc3)c[n+]3c2CCCCC3)cc1
  0.64	.

An excerpt of these results, with each value named.
CC(=O)n1cc(/C=N/NC(=O)c2cccc(O)c2)c2ccccc21
  Ba CapD inh: -0.155
  AID504770: -0.4
Cc1nc(C)c(S(=O)(=O)N2CCC(C(=O)c3ccccc3)CC2)s1
  Ba CapD inh: -0.025
  AID504770: -0.15

(further entries)
Screens in order – Ba CapD inh	AID504770
- Cc1ccc2oc(C(=O)NCc3ccncc3)cc(=O)c2c1
  2.73	-0.75
- Cc1c(Cl)cccc1NC(=O)c1ccco1
  0.53	-0.45
- CCSc1nnc(SCc2nc(N)nc(Nc3ccccc3C)n2)s1
  .	0.25
- O=C1NC(c2ccc3c(c2)OCO3)Nc2sc3c(c21)CCCC3 (centres undefined)
  -0.39	.
- O=c1c(O)coc(CO)c1C(Nc1ccccn1)c1ccccc1O (centres undefined)
  -1.5	-1.55
- CCC(C(=O)O)n1cnc2ccccc2c1=O (centres undefined)
  0.31	-0.35
- CCNC(=O)Nc1cccc2c(C)c(C)[nH]c12
  -0.435	.
- COc1ccc(OCCOC(=O)/C(=C/c2cccs2)c2cccs2)cc1
  .	-1.1
- CC(C)CNC(C)C(=O)Nc1ccc(S(N)(=O)=O)cc1 (centres undefined)
  .	0.3
- Cc1ccc(NC(=O)c2noc3c2CCC3)cc1
  0.055	0.7
- CCN(CC(=O)NCC12CC3CC(CC(C3)C1)C2)Cc1nc2ccccc2c(=O)[nH]1
  .	-0.8
- CCN(c1ccc(C(=O)OC)cc1)c1nc(C)cc(C)n1
  15	.
- COc1ccc2nc(SCC(=O)Nc3ccccc3Br)[nH]c2c1
  -0.43	.
- CN(C(=S)Nc1ccc(OC(F)F)cc1)C1CCCCC1
  .	0.45
- O=C(c1cc2ccccc2s1)N(Cc1ccccn1)Cc1ccccn1
  -1.14	-0.35
- N#CC1(NC(=O)CSc2ccccc2F)CCCCC1
  .	-1.7
- Cc1sc2nc3c4ccccc4c(NCc4ccco4)nn3c(=O)c2c1C
  25.5	1.65
- O=C(Oc1ccccc1)N1CCCC1
  0.43	-0.55
- COC(=O)C1=C(C(=O)OC)SC(=C2C(=S)C(C)(C)N(C(=O)c3ccc(Cl)cc3Cl)c3ccc(C)cc32)S1
  0.32	.
- O=c1oc2c(CN3CCN(CCO)CC3)c(O)ccc2cc1-c1nc2ccccc2s1
  -0.2	0.15
- O=C1Nc2ccccc2C(O)(C(=O)NCc2ccc3c(c2)OCO3)N1c1c(F)cccc1F (centres undefined)
  -1.17	.
- CCCCNS(=O)(=O)c1ccc(N)cc1
  .	-0.5
- N#Cc1c(-c2ccc(Cl)cc2)cc(-c2cccs2)nc1SCC(N)=O
  2.89	.
- O=C1Nc2ccccc2/C1=N\N1CCN(Cc2ccc(Cl)cc2)CC1
  0.175	-0.25
- CCNc1cc(N2CCN(c3ccccc3)CC2)c2noc3c2c1C(=O)c1ccccc1-3
  -1.04	0.1
- CCCCc1nc(NCCO)c(C#N)c2c1CCCC2
  70.9	-0.45
- O=C(O)c1ccc(S(=O)(=O)N2CCCC2)cc1
  i	-1.2
- O=C(Nc1csc2ccccc12)N1CCSCC1
  -0.325	-1.75
- CCc1ccc(S(=O)(=O)Nc2ccc3c(c2)c2c(n3S(=O)(=O)c3ccc(CC)cc3)CC(C)(C)CC2=O)cc1
  -0.355	.
- COc1ccccc1-c1c(C)nn2c(N3CCc4ccccc43)cc(C)nc12
  3.23	-0.25
- O=C1OC(c2ccccc2)Cc2ccccc21 (centres undefined)
  .	0.95
- CC(C)(C)c1ccc(Oc2ccc(NC(=O)c3ccccc3)cn2)cc1
  0.21	-0.95
- Cc1nc(N2CCN(c3ccccn3)CC2)c2c3c(sc2n1)CCCC3
  -0.285	.
- CC(=O)c1ccc2c(c1)Cc1cc(C(C)=O)ccc1-2
  -0.195	.
- N#Cc1c(SCC(N)=O)nsc1SCc1ccc(Cl)cc1
  -0.12	0.05
- CCOC(=O)c1c(C)nn(-c2ccc(NC(=O)c3cccs3)cc2)c1C
  -0.345	-0.9
- CCOC(=O)C1=NN(c2ccccc2)C2(S1)SC(c1ccccc1C)(c1ccccc1C)c1ccccc12 (centres undefined)
  -0.12	.
- Cc1cc(C)c2c(n1)sc1c(=O)n(/N=C/c3ccccc3)cnc12
  0.31	1.9
- CCc1ccnc(NS(=O)(=O)c2ccccc2)c1
  3.21	1.85
- CCOC(=O)c1c(C)n(C)c2ccc(OC(=O)OC)cc12
  .	-0.65
- COC(OC)c1nc(SCC(=O)Nc2ccc(C(C)C)cc2)ncc1C(=O)O
  8.79	0.35
- CCc1ccc2c(c1)=C(c1[nH]c(=S)[nH]c1O)C(=O)N=2
  -0.555	0.7
- Cc1ccc2c(c1Br)C1(C(=O)N2)C(C#N)=C(N)Oc2n[nH]c(-c3ccncc3)c21 (centres undefined)
  0.825	.
- O=C(COc1ccccc1)OCC(=O)N1CCCc2ccccc21
  .	-0.1
- Cc1cc(C)nc(/N=C(/N)NO)n1
  -0.995	-0.85
- Cc1ccc2c(C)nc(NC3=NC(C(=O)Nc4ccc(Br)cc4)CC(=O)N3)nc2c1 (centres undefined)
  -0.165	.
- C=CCn1c(Sc2ncnc3c2sc(=S)n3CC=C)nnc1-c1ccccc1
  1.6	-0.85
- COC(=O)Cn1c(C(O)c2ccccc2)nc2ccccc21 (centres undefined)
  .	-0.1
- Cc1nc(SCC#N)c2c3c(sc2n1)CCCC3
  0.34	0
- CC(C)N1C(=O)CCC1C(=O)NCc1ccccc1 (centres undefined)
  -0.16	-0.35
- COC(=O)c1ccccc1SCc1nc(OC)cc(OC)n1
  -0.55	.
- OC(c1ccccc1)c1ccncc1 (centres undefined)
  0.025	-1.2
- O=c1c2sccc2nc(SCc2ccccc2)n1CCc1ccccc1
  -0.29	-0.35
- N#Cc1ccc(Cl)cc1N=Cc1ccco1
  2.57	0.1
- CSc1ccc(-c2cccs2)nn1
  0.035	-1
- CC1CC(=O)Nc2ccccc2S1 (centres undefined)
  0.595	0.3
- O=C(CN1C(=O)c2ccccc2C1=O)c1cccc(C(F)(F)F)c1
  -0.555	.
- C=CCNC(=O)CSc1nccc(-c2sc3scc(C)c3c2C)n1
  1.61	0.3
- O=C(Cc1ccccc1)N/N=C/c1ccccc1C(=O)O
  .	-0.8
- COc1cc(C2C(C(=O)Nc3ccccn3)=C(C)NC3=C2C(=O)CCC3)cc(OC)c1OC (centres undefined)
  15.5	-0.1

Other structures follow.
Screens in order – Ba CapD inh	AID504770
- CS(=O)(=O)c1ccc(C(=O)OCc2ccccc2C#N)cc1
  .	1.35
- CC(=O)OCC1OC(n2ccc(=O)[nH]c2=O)C(OC(C)=O)C1OC(C)=O (centres undefined)
  0.225	-0.5
- C/C(=N\NC(=O)Cc1ccccc1)c1cccnc1
  0.125	-0.55
- CC1(C)CC2CC(C)(CN2C(=O)c2cc3ncc(Br)cn3n2)C1 (centres undefined)
  0.79	-0.85
- O=C(Nc1c(Cl)cccc1Cl)c1cc(=O)n(Cc2ccccc2)c(=O)[nH]1
  0.05	.
- Cc1cccc2c(=O)c(C(=O)NCc3cccs3)c[nH]c12
  .	0.7
- COc1ccc(C(=O)NCc2csc(-c3cccs3)n2)cc1OC
  15.4	-0.45
- CC1(C)NN=C(N)SC1=O
  -0.385	1.4
- Cc1onc(C(=O)N(C)C)c1-c1ccnc(=S)[nH]1
  6.36	-1
- CCc1c(C)c(C#N)c2nc3ccccc3n2c1Nc1ccc(OC)cc1
  -0.055	.
- O=C(CCN1C(=O)/C(=C/c2ccc(Cl)cc2Cl)SC1=S)Nc1cc([N+](=O)[O-])ccc1O
  0.04	.
- Cc1cccc(-c2nc(CS(=O)CC(=O)NCC3CCCO3)c(C)o2)c1 (centres undefined)
  -0.315	-0.95
- Cc1cccc(NS(=O)(=O)c2ccc3c(c2)OCCO3)c1
  0.23	1.15
- CCOc1ccccc1N1C(=O)/C(=C\c2cccs2)SC1=S
  0.055	0.55
- O=C(CCOc1ccccc1F)N1CCc2ccccc21
  .	-0.25
- O=C(Nc1ccn(Cc2ccccc2F)n1)Nc1ccc(F)cc1F
  0.115	0.1
- CCOC(=O)Cn1c(=O)c(-c2ccccc2NCc2ccccc2)nc2cc3ccccc3cc21
  -0.135	.
- COCCn1c(C)cc(C(=O)COC(=O)c2cc(OC)c(OC)cc2OC)c1C
  .	0.45
- CCN(CCCNC(=O)c1ccc2c(=O)n(Cc3ccc4c(c3)OCO4)c(=S)[nH]c2c1)c1ccccc1
  -0.335	.
- O=S(=O)(c1ccc(OC(F)(F)F)cc1)N1CCCC(c2ccccc2)C1 (centres undefined)
  -0.53	-1.5

Entries of single compounds, quoted from the list.
Results for O=C(c1cc2ccccc2s1)N(Cc1ccccn1)Cc1ccccn1 → Ba CapD inh = -1.14; AID504770 = -0.35
Results for CN(C(=S)Nc1ccc(OC(F)F)cc1)C1CCCCC1 → Ba CapD inh = .; AID504770 = 0.45

The results go on:
Screens in order – Ba CapD inh	AID504770
- N/C(COc1ccc(Cl)cc1Cl)=N\NC(=O)c1ccc(Cl)cc1
  0.505	.
- O=C(NCC1CCCO1)c1ccc2sc3ccccc3n12 (centres undefined)
  0.79	.
- O=C(/C=C/c1ccccc1)NC(=S)Nc1ccc(-c2nc3ccccc3o2)c(O)c1
  0.21	-0.35
- O=C(c1ccc2c(c1)OCCCO2)N1CCCCC1
  0.72	-0.65
